# Source: PubChem
# PABP FP inh – PABP-poly(A) binding inhibition. 290,000 compounds, 1% hits. PABP-poly(A) RNA binding, fluorescence polarization. inhibition, % at 35 µM. P11940;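 active means 50% or more with normal probe brightness, or confirmed in later tests; inconclusive means above 50% with abnormal brightness, or retests that disagree; inactive means below 50% or failed in later tests; about a fifth of its hits are not listed in these tables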;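 further: calls also rest on retests at 20 µM and on dose response follow-up; controls were probe without protein and protein plus probe with vehicle; some compounds called inactive have numbers as strong as hits; many hits fall short of the cut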
# Target sequence (P11940 whole entry, looked up): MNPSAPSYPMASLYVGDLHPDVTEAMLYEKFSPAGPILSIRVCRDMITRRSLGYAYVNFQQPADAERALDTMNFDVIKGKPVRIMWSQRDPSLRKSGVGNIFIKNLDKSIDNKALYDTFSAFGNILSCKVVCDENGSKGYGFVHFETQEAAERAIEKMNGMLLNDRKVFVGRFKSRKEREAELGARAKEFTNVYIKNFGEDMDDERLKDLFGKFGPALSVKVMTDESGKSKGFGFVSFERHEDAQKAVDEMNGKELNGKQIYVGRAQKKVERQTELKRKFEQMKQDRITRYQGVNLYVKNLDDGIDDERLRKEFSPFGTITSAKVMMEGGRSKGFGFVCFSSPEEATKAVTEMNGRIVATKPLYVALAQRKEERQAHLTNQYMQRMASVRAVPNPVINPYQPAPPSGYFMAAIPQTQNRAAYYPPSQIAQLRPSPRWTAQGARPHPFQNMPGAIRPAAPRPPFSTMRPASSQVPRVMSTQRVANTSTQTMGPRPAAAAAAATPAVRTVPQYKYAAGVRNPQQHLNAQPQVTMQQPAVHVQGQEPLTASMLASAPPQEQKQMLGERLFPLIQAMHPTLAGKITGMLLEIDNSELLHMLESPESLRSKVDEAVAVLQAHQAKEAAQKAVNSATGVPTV
# Rce1 inhib – yeast Ras-converting enzyme inhibition | yeast membranes, quenched prenylated peptide cleavage fluorescence | calls only | 290,000 compounds, 0.27% hits;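 active means fall in fluorescence gain of 50% or more versus controls, with final raw signal at or below 3038400; inconclusive means same 50% fall but final raw signal above 3038400; inactive means fall in fluorescence gain under 50%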;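 further: plate controls were neutral control wells for no effect and wells lacking membranes for full effect; tested at 10 µM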
# CSC inhib – blocks cancer stem cells; inhibition, % at 7.5 µM; AID 2717; 300,000 compounds, 1.1% hits; cancer stem cell-like cells viability, luminescence;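 active means mean at 75% or more and at least half the replicates too; inconclusive means mean and replicates disagree; tested in HMLE shEcad cells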;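 further: 0% = median of negative and 100% = median of positive control wells; the first replicate is given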
# eIF4H FP inh – inhibitors of RNA binding by human eIF4H; inhibition, % at 35 µM; 290,000 compounds, 0.94% hits; eIF4H fluorescence polarization binding assay; Q15056;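 active means 50% or more with normal probe brightness, or confirmed in later tests; inconclusive means above 50% with abnormal brightness, or retests that disagree; inactive means below 50% or failed in later tests; about a fifth of its hits are not listed in these tables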;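 further: calls also rest on retests at 20 µM and on dose response follow-up; 0% = protein and probe with vehicle and 100% = probe without protein; strong numbers were not always called active; many hits fall short of the cut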
# HIV Env fusion – inhibitors of HIV Env-mediated cell fusion; HeLa-JRFL Env/CEM21 cell fusion, luciferase; inhibition, % at 12.3 µM; 360,000 compounds, 1.1% hits; AID 651610;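 active means mean replicate inhibition score of at least 50 and every replicate individually at or above 50; inconclusive means only one of the two criteria met; inactive means mean below 50 and not all replicates reaching 50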;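 further: 0% = plate neutral controls and 100% = maraviroc near 300 nM; one replicate is shown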
# MT1-MMP act inh – blocks activation of human MT1-MMP; P50281; GFP/RFP ratio change, % at 20 µM; HT1080 RFP-PRO-GFP cells, GFP/RFP ratio fluorescence, overnight; percent of plate control window, DMSO zero; 360,000 compounds, 0.061% hits;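 active means GFP/RFP ratio change of at least 30% with cell ATP level not reduced by more than half and red fluorescence within 50% of control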; further: strong numbers were not always called active
#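 Assay system: HT1080 RFP-PRO-GFP cells | Dosing: 20 µM single dose, 1% DMSO | Incubation: Cells overnight before dosing, compound overnight, 37 °C, 5% CO2 | Evaluation: GFP/RFP fluorescence ratio | Control set: DMSO-only wells and HT1080 RFP-L50D-GFP cell wells as references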
# UUG fidelity – modulators of start codon recognition fidelity in yeast. AID 602363. 350,000 compounds, 0.13% hits. activity score, % at 18.7 µM. S. cerevisiae UUG-firefly luciferase reporter, luminescence/redox ratio;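 active means replicate mean at a twofold rise or more, about +100% in these data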;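 further: firefly luciferase made from a UUG start codon reports start codon fidelity; reporter light over untreated wells divided by growth signal over untreated wells; some hits fall short of that in this replicate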
# eIF4H FP inh retest – further read-out of eIF4H FP inh, marked with its call; inhibition, %; compound at 20 µM; confirmation average;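 mean of two retest wells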
# PABP FP inh retest – recorded beside PABP FP inh, whose call it bears; inhibition, %; compound at 20 µM; confirmation repeats;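 mean of two retest wells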
# MT1-MMP act inh RFP – also measured in MT1-MMP act inh; calls as there; RFP signal change, %; measured here: RFP expression control read;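 0 = vehicle wells; hits needed this value within 50% of zero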
# An asterisk follows results filed as active; i = inactive; ? = inconclusive; · = no result given.
# Preview (two entries):
SMILES,PABP FP inh,Rce1 inhib,CSC inhib,eIF4H FP inh,HIV Env fusion,MT1-MMP act inh,MT1-MMP act inh RFP,UUG fidelity,others
COc1cc(/C=C(\C#N)c2nc3ccccc3n2C)cc(OC)c1O,-5.6,i,4.4,?,-13.3,-141.2,3.2,·,
CC1(C)CC(=O)C=C(c2n[nH]nc2C2CCCCC2)C1,·,·,·,·,7.1,2.9,2.9,-3.5,

# The whole of this part, previewed entries included:
SMILES,PABP FP inh,Rce1 inhib,CSC inhib,eIF4H FP inh,HIV Env fusion,MT1-MMP act inh,MT1-MMP act inh RFP,UUG fidelity,others
COc1cc(/C=C(\C#N)c2nc3ccccc3n2C)cc(OC)c1O,-5.6,i,4.4,?,-13.3,-141.2,3.2,·,
CC1(C)CC(=O)C=C(c2n[nH]nc2C2CCCCC2)C1,·,·,·,·,7.1,2.9,2.9,-3.5,
COc1ccc(N2CC(C(=O)N[C@@H](C)C(=O)N[C@H](CO)c3ccccc3)CC2=O)cc1 (some centres undefined),-3.6,i,-9.3,-7.9,·,0.9,8.0,-19.9,
Cc1ccc(NC(=S)C2=C(O)c3ccccc3N(C)S2(=O)=O)cc1,-2.9,i,9.0,-7.2,-6.9,0.6,8.7,-61.4,
COc1cccc(Cn2cccc(NC(=O)Nc3ccccc3C)c2=O)c1,-3.9,i,3.2,-7.7,16.3,-14.9,-20.8,·,
CC(C)[C@H](NC(=O)c1ccco1)C(=O)OCC(=O)c1ccc(Br)s1,·,·,-8.2,·,-43.1,-1.4,3.2,-26.3,
Cn1cc(C(=O)c2ccc(Cl)cc2Cl)cc1C(=O)O,4.2,i,-8.5,-6.8,-44.8,-1.5,-0.9,-23.0,
Cc1cc(OC(C)C(=O)N(Cc2ccco2)C2CCS(=O)(=O)C2)cc(C)c1Cl (centres undefined),-9.6,i,-11.5,-12.3,·,-7.1,-5.8,-17.3,
CC1CC(C)CN(C(=O)C(C)N2CCN(S(=O)(=O)c3ccc(Br)s3)CC2)C1 (centres undefined),·,·,-8.9,·,12.5,-2.5,-5.6,6.6,
O=C(C1CCCCC1)N1CCC(c2nc3c(nnn3Cc3c(F)cccc3Cl)c(=O)[nH]2)CC1,-13.1,i,-1.8,9.0,·,1.2,-6.8,-5.6,
COc1ccc(-c2nc(CSCC(=O)N3CCc4ccccc43)c(C)o2)cc1OC,-3.0,i,8.5,3.5,-18.2,2.7,2.9,·,
Cc1ccc(N(CC(=O)NC(C)c2ccccc2)S(=O)(=O)c2c(C)noc2C)cc1 (centres undefined),1.2,i,5.2,-8.1,7.0,-0.1,1.7,-21.3,
CCN(CC)C(=O)Cn1cnc2sc(C(=O)N3CCN(c4ccc(F)cc4)CC3)c(C)c2c1=O,2.3,i,-8.3,-6.5,-3.3,1.4,-0.3,·,
C/C(=N\NC(=O)c1ccc(C)cc1C)c1ccc2c(c1)Nc1ccccc1S2,3.7,i,48.1,-11.9,-107.4,9.4,-19.2,-12.3,
N#Cc1ccc(C(=O)OCC(=O)NC2CCCC2)cc1,3.0,i,·,0.3,1.3,-4.8,-0.1,-1.6,
CC1CCC(NC(=O)CNC(=O)c2ccc3ccccc3c2)CC1 (centres undefined),·,i,-4.2,·,·,-2.7,-1.0,·,
O=C(CCCC(=O)OCC(Cl)=C(Cl)Cl)Nc1ccc(F)cc1,-0.3,i,·,-8.2,·,-8.8,-2.5,-2.0,
O=C(Cc1ccccc1)c1ccccc1C(=O)N1CCCCC1,0.1,i,-4.2,-0.5,-3.8,-4.2,-0.1,-18.6,
CC(=O)N1c2ccc(S(=O)(=O)N3CCCC(C(=O)Nc4cccc(Cl)c4)C3)cc2CC1C (centres undefined),0.1,i,-11.5,-1.1,44.4,-10.2,-29.7,-12.1,
O=C(CN1CCOCC1)Nc1ccccc1,-4.7,·,-11.4,-8.9,·,·,·,-4.4,
Cc1ccc(S(=O)(=O)Cc2csc(N)n2)cc1,8.1,i,-5.3,-2.5,-32.3,7.9,4.1,-22.3,
COc1ccccc1CNC(=O)CCCn1c(=O)c2ccccc2n(CC(=O)NC2CCCC2)c1=O,5.3,i,-16.9,-1.6,·,0.7,0.1,-2.9,
CCCn1nc(NS(C)(=O)=O)c2cc3cccc(C)c3nc21,1.0,i,4.7,-3.9,-10.5,-10.6,5.7,-7.9,
Cc1ccc(C)c(S(=O)(=O)Nc2cccc(-n3cnnn3)c2)c1,3.6,i,-11.7,3.6,3.4,-2.1,-3.0,-13.4,
O=C(COc1ccccc1)Nc1nn[nH]n1,6.3,i,·,-6.2,7.4,-3.6,-2.7,-15.7,

# (further entries)
SMILES,PABP FP inh,Rce1 inhib,CSC inhib,eIF4H FP inh,HIV Env fusion,MT1-MMP act inh,MT1-MMP act inh RFP,UUG fidelity,others
Cc1nn(Cc2c(F)c(F)c(F)c(F)c2F)c(C)c1NC(=O)c1ccc(COc2cc(Cl)ccc2Cl)cc1,0.2,i,-2.1,-10.7,-103.3,-1.9,-4.4,-5.2,
O=c1[nH]c(C2CCN(S(=O)(=O)c3cccc(C(F)(F)F)c3)CC2)nc2c1nnn2Cc1cccc(F)c1,-2.1,i,9.2,-3.2,-5.9,-0.2,-8.7,-11.3,
CC(C)NC(=O)NC(=O)COC(=O)c1ccccc1Oc1ccccc1,-8.3,·,-3.3,4.1,-15.8,-1.5,4.0,4.1,
COc1cccc(C(CC(=O)NCCN2CCOCC2)NS(=O)(=O)c2ccc(C)cc2)c1OC (centres undefined),-4.0,i,-4.0,-14.0,·,0.6,4.1,-11.3,
O=C(CCc1nc2ccccc2c(=O)[nH]1)N1CCN(S(=O)(=O)c2cccc([N+](=O)[O-])c2)CC1,·,i,-8.6,·,-10.7,-2.3,1.6,-12.0,
CC(=O)OCC1=C(C(=O)O)N2C(=O)[C@@H](NC(=O)Cc3cccs3)[C@H]2SC1,-4.0,i,-15.0,94.0,·,-7.1,1.7,-18.7,eIF4H FP inh retest=4.9;PABP FP inh retest=-4.2
COc1ccc(/C(O)=C2/C(=O)C(=O)N(CCN(C)C)C2c2cccnc2)cc1OC (centres undefined),4.6,i,-6.7,-2.1,4.8,-2.0,-1.1,·,
CC(=O)N/C(N)=N/c1nc(=O)c2ccccc2s1,1.0,i,16.9,0.0,-34.1,3.3,0.7,·,
COc1ccc(-n2c(Cn3nnc4ccccc43)n[nH]c2=S)cc1,19.5,i,12.8,5.5,-14.0,1.0,5.6,-8.5,
COc1cc(Br)c(C(C)NC(=O)c2ccccc2)cc1OC (centres undefined),-0.8,i,-7.8,-3.4,·,-8.9,-8.4,-6.9,
CC(=O)c1nnn(-c2ccc(Cl)cc2C#N)c1C,-1.5,i,-4.3,6.7,3.5,-2.2,5.6,·,
COc1ccc2c(-c3ccc(SC)cc3)c(-c3ccc(S(C)(=O)=O)cc3)sc2c1,·,·,3.3,·,-6.2,-2.3,-3.4,-26.9,
CC(C)CC(NC(=O)C1CCC(C)CC1)C(=O)NCc1ccco1 (centres undefined),20.2,i,-3.9,6.8,-0.9,-3.0,-0.7,-6.1,
Cc1cc(NC(=O)CSc2nnc(-c3ccccc3F)n2N)no1,·,·,-12.6,·,-2.5,-0.6,3.6,-12.7,
O=C(C1CC(c2ccc(F)cc2)=NO1)N1CCCc2ccccc21 (centres undefined),8.5,i,-9.8,-0.7,-69.6,-0.8,-3.1,·,
CCCCNCCCOc1cccc(Cl)c1,-6.4,i,-13.9,-1.0,-55.6,1.7,3.0,-4.3,
O=C(CSCSCC(=O)NCC1CCCO1)NCC1CCCO1 (centres undefined),-3.0,i,3.9,2.1,·,3.4,5.8,-5.5,
COCCn1c(-c2ccsc2)nc2c1c(=O)[nH]c(=O)n2CC(C)C,6.1,i,-4.3,-11.0,·,-1.1,1.9,-1.5,
CC1CCCCC1NC(=O)COC(=O)COc1ccc(Cl)cc1 (centres undefined),3.8,·,-1.7,-0.6,·,·,·,-0.6,
COc1ccc(CCNC(=O)CNC(=O)c2nn(-c3ccc(OC)c(OC)c3)c(=O)c3ccccc23)cc1OC,0.5,i,-10.9,1.3,36.5,3.2,2.2,-5.0,
O=C(NC1CCN(Cc2ccccc2)CC1)c1ccc(Cn2c(=S)[nH]c3ccc(N4CCOCC4)cc3c2=O)cc1,-2.0,i,·,-1.6,15.6,7.2,-5.1,-15.6,
COCCN(CC(=O)NC1CCCCC1)C(=O)c1csnn1,-4.6,i,-3.2,-4.7,·,-2.9,1.5,-8.9,
CCN(CC)S(=O)(=O)c1ccc(NC(=O)c2ccccc2N(C)S(C)(=O)=O)cc1,-8.0,i,-5.2,-0.3,-8.7,2.3,-3.6,-6.1,
Cc1csc(N/N=C/c2c(F)cccc2Cl)n1,4.5,i,15.8,-9.7,-46.5,-0.5,-2.6,-21.1,
CCCCc1n(CC(=O)c2ccc(Cl)cc2)c2ccccc2[n+]1C,3.1,i,2.4,-6.2,6.5,-5.7,-4.4,-25.0,

# New compounds follow:
SMILES,PABP FP inh,Rce1 inhib,CSC inhib,eIF4H FP inh,HIV Env fusion,MT1-MMP act inh,MT1-MMP act inh RFP,UUG fidelity,others
Oc1ccc(C23CC4CC(CC(C4)C2)C3)cc1O,-4.5,i,44.4,-4.6,3.1,6.9,2.4,-21.6,
COC(=O)c1c(-c2ccc(OC)cc2)sc2cc3c(cc12)OCO3,·,·,26.1,·,-25.9,-1.3,-0.1,-2.8,
C[C@@H]1CN([C@@H](C)CO)C(=O)Cc2cc(NC(=O)Nc3ccc(C(F)(F)F)cc3)ccc2O[C@@H]1CN(C)S(=O)(=O)c1ccc(Cl)cc1,·,·,131.9*,·,28.1,8.4,-6.8,-7.0,
CCCc1cc(=O)n2[nH]c(C)nc2n1,-8.2,i,-13.6,-3.6,-4.9,0.3,0.0,-18.2,
Cc1ccc(S(=O)(=O)NCCNC(=O)CN2CCOCC2)cc1,1.5,i,1.3,-7.6,0.0,-2.2,2.0,-11.8,
COCCCn1c2nc3ccccc3nc2c2c(=O)n(-c3ccccc3OC)cnc21,-1.1,i,-10.8,-2.1,·,-4.0,-2.2,-8.5,
O=C(CN1C(=O)CCSc2ccccc21)Nc1ccccc1,-3.2,i,-4.7,2.5,-51.5,-0.8,2.2,2.4,
N/C(=N\O)c1ccccc1-n1cccc1,1.1,i,-6.9,-5.1,4.7,2.0,2.7,·,
CCNc1nc(NCC)nc(OCCNS(=O)(=O)c2cc(C)ccc2C)n1,-5.7,i,-6.1,7.5,3.4,-1.1,1.8,-6.7,
CCN(C[C@H]1N[C@@](C)(C(=O)OC)[C@H]2C(=O)N(C)C(=O)[C@@H]12)S(=O)(=O)c1ccc(F)cc1,·,·,·,·,-119.3,0.1,4.9,-8.2,
CCCCn1c(SCC(=O)N2CC(=O)Nc3ccccc32)nnc1-c1ccoc1C,-4.7,i,·,7.0,-3.1,-0.2,8.0,-10.9,
COc1cccc(Oc2cn[nH]c2-c2ccc(O)cc2O)c1,-0.6,i,14.9,-9.2,·,4.4,-9.7,-7.4,
COc1cc(OC)c(C(=O)Nc2cccc3ccccc23)cc1OC,15.8,i,5.4,-9.4,1.7,-2.2,-2.6,-9.0,
CC1CCC(NC(=O)CCCn2sc3ccccc3c2=O)CC1 (centres undefined),-12.7,i,2.8,2.1,3.1,1.3,1.5,-11.1,
CN1CCN(c2ccc(S(=O)(=O)N3CCCCC3)cn2)CC1,10.1,i,-5.0,-9.6,·,3.8,2.7,·,
Cc1ccc(-c2nn(-c3ccccc3)cc2C(=O)NN2CCN(C)CC2)cc1,74.9,i,-12.2,-4.1,6.9,-0.8,0.5,-20.0,eIF4H FP inh retest=5.4;PABP FP inh retest=0.7

# The list is partial, so the mix of outcomes need not match the whole.
